H5N1 CPE: MDCK cell protection from H5N1 avian flu; cytopathic effect, luminescence, 72 h; hits give high values; no value below 0 was filed and about half of the inactive calls have no number; reference of the scale not given here; inhibition, % at 50 µM; 96,000 tested, 0.07% active; AID 740, 2007; in the data active = inhibition above about 25%
* = called active by the depositor; i = inactive. Not all compounds are listed (hit frequency here may not be typical).

SMILES	H5N1 CPE
O=C(Nc1ccc(Cl)cc1)[C@@H]1[C@@H]2C(=O)N(c3ccc(Cl)cc3Cl)C(=O)[C@@H]2[C@H]2C=CC=NN21	i
COc1ccc2[nH]c(=O)c(CN(C)C(=O)C3CCCCC3)cc2c1	i
O=C(c1ccc(F)cc1)N1CCN(c2cc(=O)[nH]nc2-c2ccccc2)CC1	0.3
O=C(Oc1nsnc1N1CCOCC1)N1CCOCC1	0.6
Cc1ccsc1CN1CCN(c2ccccn2)CC1	i
Cc1c(F)cccc1NC(=O)CSCC(=O)Nc1ccccc1	i
CNS(=O)(=O)c1cnccc1N1CCN(c2cccc(C(F)(F)F)c2)CC1	4.1
O=C(CCS(=O)(=O)c1ccc(Br)cc1)N1CCC2(CC1)OCCO2	i
CC(=O)Nc1ccc(S(=O)(=O)NCc2ccc(C)cc2)cc1	0.8
c1ccc(N2CCN(c3ncccn3)CC2)cc1	i
CCNc1c(N)c(=O)oc2ccccc12	i
COc1cccc(-n2c(SCC(=O)Nc3sc4c(c3C(N)=O)CCC4)nc3ccccc3c2=O)c1	i
COC(=O)c1ccc(C(=O)OC)c(NC(=O)CS(=O)(=O)Cc2ccccc2)c1	0.3
O=C1c2ccccc2C(=O)N1Cc1ccc2c(c1)OCO2	i
CC1(C)Cc2c(c(-c3ccccc3)[nH]c(=O)c2C#N)CO1	i
Cc1cc(C)n(-c2nc(C)nc3sc4c(c23)CCC(C)C4)n1 (stereo unspecified)	i
Cc1cc(C)nc(CC(N)=O)n1	i
COc1cc2c(C#N)c(N3CCCCC3)nc(N)c2c(N)n1	i
CC(C)CC(NC(=O)C1CCCCC1)C(=O)N1CCC2(CC1)OCCO2 (stereo unspecified)	i
Cc1csc(NC(=O)C2CCCN(S(=O)(=O)c3ccc4c(c3)oc(=O)n4C)C2)n1 (stereo unspecified)	3.3
CC(C)OC(=O)c1sc2nc(-c3ccccc3)ccc2c1N	i
Cn1cc(S(=O)(=O)N2CCN(C(=O)c3ccco3)CC2)c(=O)n(C)c1=O	0.4
COc1ccccc1N1CCN(C(=O)c2ccccc2Oc2ccccc2)CC1	i
Cc1occc1-c1nnc(SCC(=O)N2CCCc3ccccc32)n1Cc1ccco1	2.2
O=C(Nc1ccc(F)cc1)N1CCOCC1	i
CC1(C)CC(=O)C2=C(C1)OC(N)=C(C#N)C2C1C=CCCC1 (stereo unspecified)	2.5
O=C(NCc1ccco1)c1cccc2c1C(=O)N(C1CCCCC1)C2	1.6
CC1=C(C(=O)Nc2ccccn2)C(c2cccnc2)n2nnnc2N1 (stereo unspecified)	0.2
O=c1cc(-c2ccc(Cl)c(Cl)c2)[nH][nH]1	1.2
CCC1CC2(C)NC(=O)c3c(sc4c3CC(C)(C)OC4)N2C1=O (stereo unspecified)	1.7
COc1ccc(CN2C(=O)c3cccnc3C2Nc2cc(Cl)c(OC)cc2OC)cc1 (stereo unspecified)	0.7
CCOC(=O)c1ccc(Cl)c(NC(=O)c2ccc(-c3ccccc3)cc2)c1	0.8
O=C1C2CC=CCC2C(=O)N1c1ncn[nH]1 (stereo unspecified)	i
OC(COc1ccccc1)CN1CCN(c2ncccn2)CC1 (stereo unspecified)	i
O=C(NCc1ccccc1)c1cc2nc(C3CC3)cc(C(F)(F)F)n2n1	i
CCCCn1c(N)nc2ccccc21	i
CCCc1nnc(SCC(=O)N2CCCCC2C)n1CC (stereo unspecified)	0.7
CCCN(CCC(=O)Nc1ccccc1F)CC1CC1	1.3
Cc1ccc(N(C(=O)c2ccc(S(=O)(=O)N3CCOCC3)cc2)C2C=CS(=O)(=O)C2)cc1 (stereo unspecified)	1.5
O=C(CN1CCN(Cc2ccc(F)cc2Cl)C1=O)NCCc1ccccc1	0.7
C/C(=N/NC(=O)c1ccccn1)c1ccco1	i
C=CCn1c(SCn2nnc3ccccc3c2=O)nnc1C1CCCCC1	i
Nc1ccc(Br)c2c1C(=O)c1ccccc1C2=O	i
COC(=O)c1ccc2c(=O)n3c(nc2c1)SCC(c1ccccc1)=N3	1.0
CCCCn1cnc2sc(-c3ccccc3)cc2c1=O	i
CC1(C)NC(=O)N(CCCCOc2ccc3c(c2)CCC3)C1=O	i
Cc1occc1-c1nnc(SCC(=O)NCc2ccco2)n1CC(C)C	0.5
CC(C)(c1ccccc1)c1ccc(OCCn2cnc3ccccc3c2=O)cc1	i
CC(=O)Nc1cc2c(cc1C(=O)c1ccc(C)cc1)OCCO2	0.5
O=C(O)COc1cccc2nsnc12	1.3
COc1ccc(-n2nnnc2SCC(=O)N2C(C)CCCC2C)c(OC)c1 (stereo unspecified)	0.5
O=C(NC1CCCCC1)C(c1ccco1)N(Cc1ccco1)C(=O)c1ccco1 (stereo unspecified)	0.0
COc1cc(O)oc1C=Nc1ccc(Cl)cc1Cl	i
N#CCCNCC1(c2ccccc2)CCCC1	1.6
O=C(NCc1ccncc1)Nc1ccc(Cl)cc1Cl	i
CCOC(=O)c1cnc(SC)nc1Sc1ccccc1Cl	1.0
CC(C)NC(=O)c1ccccc1NC(=O)CS(=O)(=O)Cc1ccccc1	0.3
O=C(NCC(c1cccs1)N1CCOCC1)c1ccc(Br)o1 (stereo unspecified)	i
COc1cc(S(=O)(=O)N2CCOCC2)ccc1NC(=O)COC(=O)C12CC3CC(CC(C3)C1)C2	i
Cc1nc2sc(C(c3ccc(F)cc3)N3CCOCC3)c(O)n2n1 (stereo unspecified)	i
The results go on.
SMILES	H5N1 CPE
COc1ccc(C(=O)OCc2cc3cccc(C)c3[nH]c2=O)cc1	0.6
COc1cc2c(cc1OC)CN(C(=O)COc1ccc(C)c(C)c1)CC2	0.6
CCOC(=O)c1c(-c2ccccc2)nnn1-c1nc(OC)nc(N2CCOCC2)n1	0.0
CCCCOC(=O)c1ccc(OC(=O)c2cccnc2)cc1	i
Clc1cccc(NCc2nnc(SCc3ccccc3)o2)c1	0.1
CCCCCn1c(CNC(=O)CC)nc2ccccc21	1.0
CC(=O)Oc1oc(-c2ccccc2)nc1/C=N/c1ccccn1	0.7
COCc1[nH][nH]c(=O)c1C=Nc1ccccc1	i
O=C(NC1=NCCS1)c1csc2ccccc12	i
N/C(=N\O)C1COc2ccccc2O1 (stereo unspecified)	0.8
CN(C(=O)c1cccs1)c1ccccc1C(=O)O	i
O=C(COc1ccccc1Cl)Nn1cnnc1	i
CCCCNC(=O)CN(C1CCCCC1)S(C)(=O)=O	i
Cc1cc(NC(=O)c2cc(C3CC3)on2)n(-c2ccccc2)n1	i
O=C(CSc1ccc2nnc(-c3cccnc3)n2n1)N1CCOCC1	1.8
COc1cccc(NC(=O)C23CCC(C)(C(=O)O2)C3(C)C)c1 (stereo unspecified)	0.2
Cc1cccc(C)c1NC(=O)CC1SC2=NCCN2C1=O (stereo unspecified)	0.2
COc1ccc(C2/C(=C(/O)c3ccc(C)cc3)C(=O)C(=O)N2C)cc1 (stereo unspecified)	i
Nc1ccc2oc(-c3cccc4ccccc34)nc2c1	i
COc1cccc2[nH]c3c(N4CCN(Cc5ccc6c(c5)OCO6)CC4)ncnc3c12	1.6
O=C(NCc1nnc(SCC(=O)N2CCCC2)o1)c1ccccc1F	i
O=C(NCCc1ccccc1)C1CCCN(S(=O)(=O)c2cccs2)C1 (stereo unspecified)	0.1
CCc1ccccc1N1CC(C(=O)O)CC1=O (stereo unspecified)	1.3
CCCc1cc(C(=O)NCc2ccc(OC)cc2)no1	0.7
Cc1ccc(-n2c(=O)c(C#N)cc3c(=O)n4cccc(C)c4nc32)cc1	2.6
Cn1c(=O)c2c(-c3ccc(C(C)(C)C)cc3)n(N3CCOCC3)cc2n(C)c1=O	i
CC(C)Cc1nc2oc3c(NCc4cccnc4)ncnc3c2c2c1CCC2	i
O=C(CNS(=O)(=O)c1ccc(Br)s1)Nc1ccc2c(c1)OCCO2	i
O=C(O)C1CC(=O)N(CCc2c[nH]c3ccccc23)C1 (stereo unspecified)	i
O=C1CC(c2ccc(F)cc2)CC(O)=C1C1NCCc2ccccc21 (stereo unspecified)	1.1
COCCOCCn1c(CCCO)nc2ccccc21	i
COc1ccc(OCC(=O)NCCc2ccc(S(N)(=O)=O)cc2)cc1	1.0
CSc1sc(C(=O)O)c2c1C(=O)CCC2	i
O=C(CSc1nnc(C2CC2)n1Cc1ccccc1)NCc1ccccc1	i
Cc1ccc(NC(=O)CN2C(=O)S/C(=C/c3ccc(-c4cc(C(=O)O)ccc4C)o3)C2=O)cc1C	0.5
CN(C)c1c([N+](=O)[O-])ncn1C	i
CCOC(=O)c1cc2sccc2n1CC(=O)N1CCN(C(=O)c2ccco2)CC1	1.2
CC(C)Cc1nnc(NS(C)(=O)=O)s1	1.0
Cc1ccc2c(CN3CCC(C)CC3)cc(=O)oc2c1	0.7
O=C(CCN1CCCCCC1)Nc1ccc(F)cc1	0.1
COc1ccc(N2CCN(C(c3cccs3)c3nnnn3C3CCCC3)CC2)cc1 (stereo unspecified)	i
O=C(c1nc(-c2ccccc2)n(-c2ccccc2)n1)N1CCCCCC1	i
CCc1nc(OCCN(C)C)c2oc3ccccc3c2n1	1.8
O=C(CSc1ccc(F)cc1)N1CCC(c2nc3ccccc3s2)CC1	5.5
COC(=O)c1ccc(NC(=O)CC2C(=O)N(c3ccc(C)cc3)C(=O)N2CC(C)C)cc1 (stereo unspecified)	0.7
CCC(C(=O)c1ccc(O)cc1)c1ccccc1 (stereo unspecified)	0.3
CCOC(=O)c1ccc(N2C(=O)CC(N3CCC(Nc4ccc(F)cc4)CC3)C2=O)cc1 (stereo unspecified)	i
CCOc1ccccc1N(CC(=O)NC(C)(C)C)C(=O)c1ccc(CN2CCOCC2)o1	2.6
Cc1nn2c(N3CCN(C(=O)c4ccco4)CC3)cc(C(C)(C)C)nc2c1-c1ccccc1	i
C=CCNC(=O)Cn1nc(-c2ccccc2)ccc1=O	0.7
CC(C)Cc1c(O)nc(SCCN2CCOCC2)[nH]c1=O	1.0
Cc1ccccc1NC(=O)CC(O)(C(F)(F)F)C(F)(F)F	0.0
Nc1cc(-c2ccccc2)nn1S(=O)(=O)c1ccc(Br)cc1	1.8
O=[N+]([O-])c1cc(-c2cnc3ccccc3n2)ccc1Oc1ccc(Br)cc1	i
Cc1c(C(=O)NCC2COc3ccccc3O2)oc2ccc(S(=O)(=O)N(C)C3CCCCC3)cc12 (stereo unspecified)	3.6
CCOC(=O)N1CCC(NC(=O)C2CCC(CNS(=O)(=O)c3ccc(OC)cc3)CC2)CC1 (stereo unspecified)	i
COCCn1ccc(O)c(Cc2ccccc2)c1=O	i
CCC(=O)NNC(=O)CCC(=O)Nc1ccccc1	i
Cc1ccc(C)c(S(=O)(=O)C(C#N)c2nc3ccccc3nc2N2CCCC2)c1 (stereo unspecified)	0.5
O=C(CN1C(=O)C2C3C=CC(C3)C2C1=O)NCCC1=CCCCC1 (stereo unspecified)	i
Following part:
SMILES	H5N1 CPE
CCOC(=O)C1=C(c2ccccc2)OC(N)=C(C#N)C1c1ccc(Cl)s1 (stereo unspecified)	i
C/C(N)=C(/C#N)C(=O)CSc1n[nH]c(-c2ccccc2Br)n1	i
N#CCSc1nnc(COc2cccc3ccccc23)n1-c1cccc(Cl)c1	0.4
O=C(NCc1ccc(Cl)c(Cl)c1)c1ccco1	i
Nc1cc(-c2ccc(Br)cc2)nn1S(=O)(=O)c1ccccc1	1.4
CCOC(=O)C(/C=C(\C#N)C(=O)OCC)=C(/N)N1CCN(c2c(C)cccc2C)CC1	0.2
CCOCc1nc(C)c(Cl)c(NS(=O)(=O)c2ccc(N)cc2)n1	0.3
C=CCn1c(SCC(=O)Nc2c(C)cccc2C)nnc1-c1ccncc1	i
Cc1nn(C(=O)c2cc3sccc3[nH]2)c(C)c1C	1.3
COc1ccc2c(c1)[nH]c1c(=O)n(Cc3ccco3)cnc12	i
Cc1c(C2N3CC4(C)CN2CC(C)(C3)C4=O)c2ccccc2n1C (stereo unspecified)	i
Cc1c(C(=O)OCC(C)C)[nH]c2c1C(=O)CC(c1ccco1)C2 (stereo unspecified)	0.7
CC(C)c1ccc(/C=N/n2nnnc2Nc2ccccc2)cc1	i
Cc1cc2[nH]c(=O)c3ccccc3n2n1	1.0
CCOc1ccc(OCC)c(NC(=O)Cn2cccc2)c1	0.2
O=c1ccc2cc(S(=O)(=O)N3CCN(c4cc(Cl)ccc4Cl)CC3)ccc2o1	i
CCNc1nc(NCC)nc(N(C)N)n1	i
Cc1nnc(NC(=O)C(C)Sc2nncn2C)s1 (stereo unspecified)	0.5
CCCN(CCO)Cc1cccc(Br)c1	1.7
Cn1c(SCc2nc(-c3ccc(Cl)cc3)no2)nnc1-c1ccco1	0.1

By substructure, the entries above with a Cl atom
SMILES	H5N1 CPE
O=C(Nc1ccc(Cl)cc1)[C@@H]1[C@@H]2C(=O)N(c3ccc(Cl)cc3Cl)C(=O)[C@@H]2[C@H]2C=CC=NN21	i
O=c1cc(-c2ccc(Cl)c(Cl)c2)[nH][nH]1	1.2
COc1ccc(CN2C(=O)c3cccnc3C2Nc2cc(Cl)c(OC)cc2OC)cc1 (stereo unspecified)	0.7
CCOC(=O)c1ccc(Cl)c(NC(=O)c2ccc(-c3ccccc3)cc2)c1	0.8
O=C(CN1CCN(Cc2ccc(F)cc2Cl)C1=O)NCCc1ccccc1	0.7
COc1cc(O)oc1C=Nc1ccc(Cl)cc1Cl	i
O=C(NCc1ccncc1)Nc1ccc(Cl)cc1Cl	i
CCOC(=O)c1cnc(SC)nc1Sc1ccccc1Cl	1.0
Clc1cccc(NCc2nnc(SCc3ccccc3)o2)c1	0.1
O=C(COc1ccccc1Cl)Nn1cnnc1	i
CCOC(=O)C1=C(c2ccccc2)OC(N)=C(C#N)C1c1ccc(Cl)s1 (stereo unspecified)	i
N#CCSc1nnc(COc2cccc3ccccc23)n1-c1cccc(Cl)c1	0.4
O=C(NCc1ccc(Cl)c(Cl)c1)c1ccco1	i
CCOCc1nc(C)c(Cl)c(NS(=O)(=O)c2ccc(N)cc2)n1	0.3
O=c1ccc2cc(S(=O)(=O)N3CCN(c4cc(Cl)ccc4Cl)CC3)ccc2o1	i
Cn1c(SCc2nc(-c3ccc(Cl)cc3)no2)nnc1-c1ccco1	0.1

Screening data (PubChem BioAssay)
